Assay outcomes: PubChem BioAssay, Johns Hopkins Ion Channel Center
KCNQ2 pot – potentiators of rat KCNQ2 potassium channel. O88943. CHO-K1 KCNQ2, FluxOR thallium flux fluorescence; hits give high values. B-score at 10 µM. 0.54% of 310,000 active. AID 2239;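 active = fluorescence ratio B-score at least 3 SD of library B-scores, with initial fluorescence B-score within 3 SD, cut at about 5.3 in these data; same plate scores as AID 2156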;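 also: B-score of peak minus minimum over baseline fluorescence ratio after K+ and Tl+ stimulus; positive B-score means potentiation of KCNQ2 with more thallium influx and brighter signal; only the inactives scoring about 0 or higher are listed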
Target sequence (O88943 whole entry, looked up): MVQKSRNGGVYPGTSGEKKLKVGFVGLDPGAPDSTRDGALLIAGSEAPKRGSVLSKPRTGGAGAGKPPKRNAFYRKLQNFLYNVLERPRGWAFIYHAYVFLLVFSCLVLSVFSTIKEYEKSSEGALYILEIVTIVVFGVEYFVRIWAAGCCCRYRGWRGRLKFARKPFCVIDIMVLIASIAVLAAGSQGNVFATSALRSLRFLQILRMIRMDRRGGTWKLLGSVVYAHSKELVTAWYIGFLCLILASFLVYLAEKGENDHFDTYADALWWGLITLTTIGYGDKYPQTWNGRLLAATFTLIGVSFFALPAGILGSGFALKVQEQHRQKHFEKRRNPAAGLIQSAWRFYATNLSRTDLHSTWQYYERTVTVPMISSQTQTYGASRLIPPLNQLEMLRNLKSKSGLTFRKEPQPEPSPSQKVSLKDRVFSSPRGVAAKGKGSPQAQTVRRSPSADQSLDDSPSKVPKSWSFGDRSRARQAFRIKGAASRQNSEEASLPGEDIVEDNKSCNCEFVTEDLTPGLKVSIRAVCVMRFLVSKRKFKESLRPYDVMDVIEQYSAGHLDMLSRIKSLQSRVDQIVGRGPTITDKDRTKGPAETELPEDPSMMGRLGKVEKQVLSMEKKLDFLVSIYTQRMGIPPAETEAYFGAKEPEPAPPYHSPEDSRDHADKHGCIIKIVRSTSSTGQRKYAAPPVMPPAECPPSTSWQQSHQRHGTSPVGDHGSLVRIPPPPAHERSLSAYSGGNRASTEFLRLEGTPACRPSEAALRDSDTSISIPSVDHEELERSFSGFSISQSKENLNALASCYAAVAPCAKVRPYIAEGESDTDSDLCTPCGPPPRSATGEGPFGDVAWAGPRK
KCNQ2 pot baseline – also measured in KCNQ2 pot; calls as there; B-score; compound at 10 µM; measured here: initial fluorescence intensity artifact check;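 brightness before thallium and not channel activity; 0 = typical well and far values either way flag optical interference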
* marks the source's active call; other numbers are inactive results. This is a subset, so the mix of outcomes need not match the whole.

smiles	KCNQ2 pot	KCNQ2 pot baseline
O=C(CN1C(=O)NC2(CCCC2)C1=O)N1CCN(S(=O)(=O)c2cccc(C(F)(F)F)c2)CC1	0.14	0.53
O=C(NCCO)c1cc2ccccc2c(=O)s1	0.24	-2.5
CN1C(=O)CSC1=Nc1ccc(Br)cc1	0.04	0
CC1=CN2C(=N)/C(=C/c3ccc([N+](=O)[O-])o3)C(=O)N=C2S1	0.95	0.67
Cc1cc2c(cc1C)C(c1cc(Br)ccc1F)CC(=O)N2 (stereo not given)	0.81	-0.11
CSCCNC(=O)c1ccc(OC2CCN(CCc3ccccc3)CC2)cc1	0.76	0.12
CSc1ccc(Cn2nnc(C(=O)Nc3ccc(C)c(C)c3)c2N)cc1	1.6	-0.03
O=C(O)c1ccc(COc2cccc(CO)c2)cc1	0.06	3
CCCOc1ccc(N2C(=O)C3C(C(C)C)NC4(C(=O)c5ccccc5C4=O)C3C2=O)cc1 (stereo not given)	2.9	-0.32
CCNC(=S)N1CC(C)OC(C)C1 (stereo not given)	0.65	2.1
COc1ccc(OC)c(NC(=O)C2CC(=O)n3ncnc3N2)c1 (stereo not given)	0.99	-1.7
CCc1ccccc1S(=O)(=O)c1c(C)cc(C)nc1Cl	0.15	-0.17
CCOc1ccccc1NC(=O)CN(c1cc(C)cc(C)c1)S(=O)(=O)c1c(C)noc1C	0.88	-0.8
CCn1c(SCc2ccc(Cl)cc2)nc2nc3c(cc2c1=O)CCCC3	0.6	0.93
CC(=O)OC[C@H]1O[C@@H](n2ccc(=O)[nH]c2=S)C(OC(C)=O)C1OC(C)=O (stereo not given in full)	0.83	-0.59
COc1ccccc1N(C(=O)c1snc(C(N)=O)c1N)C(C(=O)NCc1ccccc1)c1ccc(C)o1 (stereo not given)	0.2	0.67
Cc1cccnc1CC(C)NC(=O)c1cc(COc2cncc(Cl)c2)on1 (stereo not given)	0.68	0.58
COc1ccc(CC2(CO)CCN(S(=O)(=O)N(C)C)CC2)cc1	1.4	2.1
OC(CNCc1ccccc1)c1ccccc1 (stereo not given)	0.25	-1.2
CC(=O)Oc1ccc2c(c1)cc(C)n2C	0.41	2.3
O=C(OCCNc1ncc(C(F)(F)F)cc1Cl)c1ccc(S(=O)(=O)N2CCOCC2)cc1	0.01	-0.22
CCc1cc(C(=O)c2ccc(OC)cc2)c(NC(=O)CN2CCCC2)s1	0.05	1.7
CC(=O)Nc1cccc(OCCCOc2ccc([N+](=O)[O-])cc2)c1	0.4	-0.01
O=C(Nc1ccc(C(=O)O)cc1)/C(=C\c1ccccc1)NC(=O)c1ccco1	0.24	-0.23
O=C(O)c1ccccc1C(=O)Nc1c(-c2ccccc2)nc2ccccn12	0.17	0.4
CC(=O)Nc1nnc(SCC(=O)NCc2ccc3c(c2)OCO3)s1	2.7	0.03
Cn1cnnc1SCc1cccc(Br)c1	0.77	-0.84
O=C(c1ccc(Br)o1)N1CCN(Cc2ccc3c(c2)OCO3)CC1	0.01	0.93
CC(C)CN(Cc1c(O)ccc2c3c(c(=O)oc12)CCC3)CC(C)C	0.5	0.9
CC1(C)CC(=O)C(C(=O)/C=C/c2ccco2)C(=O)C1	1.3	-1.1
Cc1cc(C)cc(NC(=O)C2CCN(S(=O)(=O)c3ccc4c(c3)NC(=O)C(C)S4)CC2)c1 (stereo not given)	0.72	-0.25
Cc1cc2nc(-c3ccc[nH]c3=O)[nH]c2cc1C	0.19	0.24
CC(=O)Nc1ccc(S(=O)(=O)Nc2cccc(-c3nc4ccccc4o3)c2)cc1	0.96	-0.64
CC(=O)c1cccc(NC(=O)/C(=C\c2cccnc2)NC(=O)c2ccc(C)cc2)c1	1.5	-0.54
CCOc1cccc2sc(N(CCN(C)C)C(=O)c3ccc4c(c3)OCCO4)nc12	0.28	-0.24
CCOc1ccc(C=Nc2cccc3ncccc23)cc1	0.56	0.67
COc1ccc(OC)c(C2C3=C(CC(C)(C)CC3=O)Nc3nnnn32)c1 (stereo not given)	0.45	1.9
COCCn1cc(C(=O)NCCCN2CCC(C)CC2)c2c3ccccc3n(C)c2c1=O	2.7	-0.36
Cc1cc(C)nc(Nc2n[nH]c(C)n2)n1	0.37	0.93
Cc1cc2cc3c(cc2nc1SCC(=O)N1CCCC1)OCCO3	1.2	0.54
COc1ccc(CCC(=O)NNC(=O)c2ccc(F)cc2)cc1	3.6	0.43
COc1ccc(N(CC(=O)NCCc2ccc(Cl)cc2)S(=O)(=O)c2c(C)[nH]c(=O)[nH]c2=O)cc1	1	-0.12
N#CCN1C(=O)C(=O)N(Cc2cccc(Cl)c2)C1=O	0.41	-1.4
CC(C(=O)Nc1cccnc1)N1C(=O)c2ccccc2C1=O (stereo not given)	1.9	-0.45
O=C(NCc1ccco1)Nc1ccccc1Cl	1.7	0.79
COc1cc(OC)cc(C(=O)NC2CCSc3ccccc32)c1 (stereo not given)	0.34	0.87
COc1ccccc1NS(=O)(=O)c1cccc(NC(=O)c2sc3ccccc3c2Cl)c1	2.1	-0.92
COc1cc(OC)cc(C(=O)NCC(=O)OCC(=O)NC(C)(C)C)c1	0.22	0.88
O=C(Nc1ccc(C(=O)N2CCOCC2)cc1)c1cc(-c2cccnc2)nc2ccc(Cl)cc12	0.35	-0.69
COc1ccccc1N1C(=O)C2C(c3ccccc3F)NN(C(=O)c3ccc(C)cc3)C2C1=O (stereo not given)	0.76	0.19

Additional structures.
smiles	KCNQ2 pot	KCNQ2 pot baseline
CCC(C(=O)OC)n1cnc2c(nnn2-c2cccc(Cl)c2)c1=O (stereo not given)	0.97	-0.91
CC(=O)OC1CCC2C3CCC4=CC(=O)CCC4(C)C3CCC2(C)[C@]1(C)O (stereo not given in full)	1	0.84
O=C(CNc1ccc(F)cc1F)NC(=O)NCc1ccco1	1.2	0
CN1CCC(OC(=O)COc2ccc(C(C)(C)C)cc2)CC1	0.96	3.1
CCOC(=O)C1CCN(Cc2ccc(OC)c(OCc3ccccc3)c2)CC1	1.5	0.02
O=C(COc1ccc(S(=O)(=O)N2CCOCC2)cc1Cl)NCCN1CCOCC1	0.63	-0.01
Cc1noc(C)c1C(=O)N1CCCC(C(=O)c2ccc(Cl)cc2)C1 (stereo not given)	0.25	-3.5
COC(=O)CCC(=O)Nc1ccc(S(=O)(=O)Nc2cc(OC)nc(OC)n2)cc1	0.54	-2.1
CN(C)c1cccc(C(=O)OCC(=O)NCc2ccco2)c1	1.6	0.49
Cc1cccc(C(=O)O)c1NC(=O)c1ccc(F)cc1	0.01	0.81
CC1CN(Cc2ccccc2)c2nc3c(c(=O)n(C)c(=O)n3C)n2C1 (stereo not given)	0.12	0.24
CC(C)COP(=O)(OCC(C)C)C(O)c1ccc(N(C)C)cc1 (stereo not given)	1.7	0.2
Nc1ccc2c(c1)CCC2=O	0.01	-0.9
Cc1cccc(NC(=O)c2cc(-c3ccc(C)c(C)c3O)n[nH]2)c1	1.1	-1.3
CC(C)c1ccc(/C=N/NC(=O)c2c(Cl)cnn2C)cc1	0.39	-2.5
CCCC(=O)Nc1nc2nc(C)cc(=O)n2[nH]1	2.9	1.6
Cc1ccc(NC(=S)NNC(C)(C)C)cc1	0.41	0.59
Cc1cc(C(=O)OCC(=O)N2CCCC2)c2ccccc2n1	1.1	-0.97
COC(=O)C1CCN(C(=O)c2sc3nc(-c4ccccc4)cn3c2C)CC1	0.1	-0.02
O=C(Nc1ccc(F)cc1)N1CCN(C/C=C/c2ccccc2)CC1	0.4	-0.25
CCSc1nnc2ccc(-c3cccs3)nn12	2.2	-0.35
Cc1nc2ccccc2c2nc3ccccc3n12	2.7	-0.79
Cc1ccc(OCCCCN2CCCCC2)c(Br)c1	0.68	0.17
Cc1cc(C)c(S(=O)(=O)N2CCN(S(=O)(=O)N3CCOCC3)CC2)c(C)c1	1.2	1.1
O=C(Cc1csc(N2CCOCC2)n1)N/N=C/c1ccccc1C(=O)O	0.87	0.84
O=C(NC(C(=O)N1CCCC1C(=O)O)=C1CCCCC1)c1ccccc1 (stereo not given)	0.65	-0.45
Cc1ccc2[nH]c(=O)c(CNC(C)(C)C)cc2c1	1.1	-1.2
Cc1cccc(C(=O)Nc2nnc(COc3ccccc3)s2)c1	0.79	0.54
C[C@H](NC(=O)c1ccccc1Cl)C(=O)OCC(=O)NNC(=O)c1cccs1	1.3	0.64
Cc1ccc(NC(=O)C2CCCN(c3ncccn3)C2)cc1C (stereo not given)	0.06	0.37

Profiles from above. Screens in order: KCNQ2 pot	KCNQ2 pot baseline
COC(=O)C1CCN(C(=O)c2sc3nc(-c4ccccc4)cn3c2C)CC1 is entered as 0.1	-0.02
COc1ccc(CCC(=O)NNC(=O)c2ccc(F)cc2)cc1 is entered as 3.6	0.43

Ordered by molecular weight (descending): some entries from above.
smiles	KCNQ2 pot	KCNQ2 pot baseline
C[C@H](NC(=O)c1ccccc1Cl)C(=O)OCC(=O)NNC(=O)c1cccs1	1.3	0.64
O=C(Cc1csc(N2CCOCC2)n1)N/N=C/c1ccccc1C(=O)O	0.87	0.84
CCSc1nnc2ccc(-c3cccs3)nn12	2.2	-0.35

The results go on.
smiles	KCNQ2 pot	KCNQ2 pot baseline
Cc1ccc(NC(=O)NCc2cccnc2)cc1Cl	0.25	-0.11
COc1ccc(Cn2c(=O)[nH]c3cc(C(=O)Nc4ccccc4C)ccc32)cc1	0.94	1.4
COC(=O)c1ccc(Nc2ncnc3sccc23)cc1	1.4	0.75
NC(=O)c1oc2ccccc2c1NC(=O)CS(=O)(=O)c1ccccc1	0.41	2.3
O=C(Nc1cccc(S(=O)(=O)N2CCOCC2)c1)C1CCCN(C(=O)c2ccc(Cl)cc2)C1 (stereo not given)	0.88	0.82
O=C(CC1NCCNC1=O)Nc1cccc([N+](=O)[O-])c1 (stereo not given)	0.06	-0.38
Cc1ccc(S(=O)(=O)N(C)CCCC(=O)Nc2ccc(F)cc2)cc1	0.57	1.2
Cc1ccc(NC(=O)C2CCCCC2C(=O)O)cc1C (stereo not given)	0.58	0.52
CC(=O)Nc1ccc(S(=O)(=O)N2CCN(Cc3nc4sc(C)c(C)c4c(=O)[nH]3)CC2)cc1	0.5	0.85
COC(=O)c1ccc(-c2ccc(C(c3c(C)[nH][nH]c3=O)c3c(C)[nH][nH]c3=O)o2)cc1	0.22	-0.24
CCCN1CCCc2cc(CN(CCCN3CCOCC3)C(=O)Nc3ccc(OCC)cc3)ccc21	1.4	-2.1
Cn1c(SCC(=O)N2CCCC2)nc2cccnc21	0.02	-0.02
COc1cc(C)c(NC(=S)Nc2ccc(C)c(Cl)c2)cc1OC	0.31	1.1
COC(=O)C1=C(N)OC2=C(C(=O)CCC2)C1c1ccc2c(c1)OCO2 (stereo not given)	0.68	-0.34
Cc1ccccc1-n1c(SCC(=O)NC(N)=O)nc2sc(-c3ccccc3)cc2c1=O	0.84	0.75
CC(=O)N1CCN(c2ccc(NC(=O)c3ccc(OCc4ccccc4)cc3)cc2)CC1	0.48	0.84
O=C(COC(=O)c1cccs1)NCCN1C(=O)CSC1=O	0.61	-1.6
COc1ccc(OC)c(/C=C/C(=O)OCC(=O)Nc2cccc(C(C)=O)c2)c1	2.4	-0.41
COC(=O)CCCC1=CC2=C(c3ccccc3)C(=O)C(C)(OC(=O)C3CCCC3)C(=O)C2=CN1CC1CC1 (stereo not given)	0.19	0.26
CCNCc1ccccc1OCc1ccccc1	0.43	-1.1
CCCCNCC#CCOc1cc(C)ccc1C(C)C	0.31	0.06
CC(C)=CC(=O)OCC(=O)Nc1ccc(F)cc1Cl	0.76	1.2
COC(=O)Cc1c(C)nc2nc(-c3ccc(OC)cc3)[nH]n2c1=O	0.01	0.76
Clc1ccc(Cl)c(OCCCCN2CCCCC2)c1	0.52	0.59
O=C(O)C1CCN(c2ccc([N+](=O)[O-])cc2[N+](=O)[O-])CC1	0.01	-2.2
COCCn1c(SCC(=O)Nc2sccc2C(N)=O)nnc1-c1ccncc1	1.3	-0.01
O=C(CN=C1NS(=O)(=O)c2ccccc21)OCC(=O)c1cc(F)ccc1F	0.78	-0.22
COc1ccccc1/C=C/C=N/Nc1cccc(C(=O)O)c1	0.55	0.02
Cc1ccc2c(c1)C(c1ccccc1)N(C(=O)c1ccc(F)cc1)CC(=O)N2 (stereo not given)	0.74	1.5
Cn1c(=O)c2[nH]c(N=Nc3ccc(N)cc3N)nc2n(C)c1=O	0.38	0.01
c1coc(CNc2c3c(nc4ncnn24)CCCC3)c1	0.15	0.42
NC(=O)C1(NC(=O)[C@@H]2CC3(CC(c4cccc(NC(=O)[C@@H]5CCC(=O)N5)c4)=NO3)CN2C(=O)c2cnccn2)CC1 (stereo not given in full)	0.12	-0.01
CCn1c(C(O)c2cc(OC)ccc2OC)nc2ccccc21 (stereo not given)	0.65	0.47
CC1C(=O)NN=C1C(=O)N/N=C\c1ccc(O)cc1O (stereo not given)	0.76	-0.31
O=C(Nc1ccccc1)Nc1ccc2c(c1)CCC2	3.4	-2.4
O=C(Cn1[nH]c(=O)c2ccccc2c1=O)Nc1ccc2c(c1)CCC2	0.97	-1.2
C/C(=N\NC(=O)c1cc(Br)ccc1O)c1ccccn1	3.2	-0.87
Cc1cc(NC(=O)C2CCCN2C(=O)Nc2cccc(Cl)c2)ccc1-n1cnnn1 (stereo not given)	0.58	-0.86
COc1cccc(NC(=O)[C@H](C)NC(=O)C2CCN(S(=O)(=O)c3ccc(C)cc3)CC2)c1	0.56	-1.4
Cc1cc(-c2nnc(SCC(=O)Nc3nccs3)o2)no1	0.41	-0.14
